D2 ag: Beta-Arrestin HTS for Positive Allosteric Modulators of the Human D2 Dopamine Receptor: Agonists. D(2) dopamine receptor (Homo sapiens), P14416. DiscoveRx PathHunter D2 beta-arrestin, luminescence, 90 min; 100% = 57 uM dopamine signal. activation, % (test concentration not listed). hit rate 0.084% among 360,000. AID 624465, 2012; in the data active = activation above about 40%; inconclusive = about 15% to 40%; inactive = below about 15%; also: compound concentration not given in the record; the text of the record calls up to 30% inactive
Target sequence (P14416 whole entry, looked up): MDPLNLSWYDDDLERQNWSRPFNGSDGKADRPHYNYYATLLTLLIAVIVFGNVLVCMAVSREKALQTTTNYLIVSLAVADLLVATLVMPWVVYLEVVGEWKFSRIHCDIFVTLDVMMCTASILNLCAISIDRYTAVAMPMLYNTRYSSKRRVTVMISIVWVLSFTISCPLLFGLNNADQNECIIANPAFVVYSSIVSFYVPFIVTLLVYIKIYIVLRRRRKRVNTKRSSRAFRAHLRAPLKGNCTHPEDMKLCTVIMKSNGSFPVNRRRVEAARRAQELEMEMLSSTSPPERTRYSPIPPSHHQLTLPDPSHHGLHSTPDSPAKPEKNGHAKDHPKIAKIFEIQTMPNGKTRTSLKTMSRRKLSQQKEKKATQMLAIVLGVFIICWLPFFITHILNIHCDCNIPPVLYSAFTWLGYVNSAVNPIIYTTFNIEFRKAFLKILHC
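DiscoveRx PathHunter D2 beta-arrestin cells (2,100/well) attached overnight, then compound-stimulated 90 min at 37 C in HBSS/10 mM HEPES/0.1% Tween-20 buffer; beta-galactosidase complementation read by luminescence after 1 h at ambient temperature. Dopamine 57 uM final (EC100) as control.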
TRPML1 agonist: qHTS for Agonists of the Human Mucolipin Transient Receptor Potential 1 (TRPML1). hit rate 0.12% among 410,000. TRPML1-expressing cells, Ca2+ dye fluorescence, FDSS; host cell line not named in the record; reference of the full effect not given here. activation, % (test concentration not listed); in the data active = activation above about 50%; inconclusive = about 30% to 50%; inactive = below about 30%; also: 0% is about no effect; the text of the record puts the active cut at 80%
Target sequence (Q9GZU1 whole entry, looked up): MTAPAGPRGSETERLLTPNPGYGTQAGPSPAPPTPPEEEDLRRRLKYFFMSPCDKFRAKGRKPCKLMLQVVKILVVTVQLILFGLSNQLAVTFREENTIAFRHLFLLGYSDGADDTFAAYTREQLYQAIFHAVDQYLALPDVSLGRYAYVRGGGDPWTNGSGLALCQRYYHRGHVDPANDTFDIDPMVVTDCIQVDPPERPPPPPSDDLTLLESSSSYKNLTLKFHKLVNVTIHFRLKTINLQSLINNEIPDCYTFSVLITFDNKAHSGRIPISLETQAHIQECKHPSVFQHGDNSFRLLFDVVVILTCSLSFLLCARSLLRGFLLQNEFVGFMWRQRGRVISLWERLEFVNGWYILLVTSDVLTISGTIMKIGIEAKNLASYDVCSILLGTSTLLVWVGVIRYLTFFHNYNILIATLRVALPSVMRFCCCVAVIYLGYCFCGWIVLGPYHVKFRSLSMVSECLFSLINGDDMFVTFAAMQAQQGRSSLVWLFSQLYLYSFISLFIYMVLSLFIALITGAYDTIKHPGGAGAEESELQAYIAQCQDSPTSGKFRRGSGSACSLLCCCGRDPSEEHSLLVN
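Tetracycline-induced TRPML1-DL cells are seeded and incubated overnight before loading with a no-wash Ca2+ dye and quencher. Agonist activity is taken from the 110 s fluorescence read following compound pin-transfer on an FDSS, before EC80 54-4 challenge.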
D2 potentiator: Beta-Arrestin HTS for Positive Allosteric Modulators of the Human D2 Dopamine Receptor: Potentiators. D(2) dopamine receptor (Homo sapiens), P14416. DiscoveRx D2 beta-arrestin cells, luminescence, 90 min; 100% = 57 uM dopamine signal. potentiation, % (no concentration beside the values). hit rate 0.23% among 360,000. AID 624464, 2012; active = potentiation of 50% or more; inconclusive = 30% to 50%; inactive = 30% or less;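 also: compound concentration not given in the record; tested on top of an EC20 dose of dopamine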
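PathHunter beta-arrestin assay in DiscoveRx D2 cells. Compounds were added with an EC20 of dopamine (50 nM final) for 90 min at 37 deg C. Luminescence was read 1 h after detection reagent, with 57 uM dopamine as the EC100 control.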
CtBP-E1A inh: qHTS Assay for Inhibitors of the CtBP/E1A Interaction. AlphaScreen GST-E1A/His-CtBP binding, 1536-well; stronger effect = lower value; control for the full effect not named in the record. activity change, % (no concentration beside the values). CtBP / adenovirus E1A interaction (AlphaScreen). AID 651724, 2012. hit rate 0.49% among 340,000; in the data active means activity change below about -65%; inconclusive means about -30% to -65%; inactive means above about -30%; also: % is scaled to controls: 0 for no effect and ±100 for the full control effect; compound concentration not given in the record
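In 5 uL wells, 23 nL compound meets equimolar GST-E1A and His-CtBP (5X stock 125 nM each) for 2 h, 37 °C. Beads (5X, 50 ug/mL) then 1 h, 37 °C, dark.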
Six1-Eya2 blk: qHTS Assay for Inhibitors of the Six1/Eya2 Interaction; Homeobox protein SIX1 (Homo sapiens) + Protein phosphatase EYA2 (Homo sapiens), …; AlphaScreen GST-Six1/His-Eya2 binding, biochemical; stronger effect = lower value; control for the full effect not named in the record; activity change, % (no concentration beside the values); hit rate 0.56% among 360,000; AID 651725, 2012; in the data active = activity change below about -65%; inconclusive = about -30% to -65%; inactive = above about -30%; also: % is scaled to controls: 0 for no effect and ±100 for the full control effect; compound concentration not given in the record
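GST-Six1 + His-Eya2 (5X stock: 250/500 nM); Tris pH 8.0, 300 mM NaCl, 0.05% BSA, 0.02% Tween 20; GSH donor/Ni acceptor beads; 1 h 37 °C dark; AlphaScreen readout.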
PINK1 expr mod: A Quantitative High throughput Screen to Identify Chemical Modulators of PINK1 Expression. PINK1 immunofluorescence, high-content cytometry, 24 h. Potency, µM (titrated, usually from 76.6 µM), without a hit: top-dose activation (PINK1 increase), hits mostly activators. hit rate 0.2% among 410,000; active = well fitted activation curve with a large enough effect; inconclusive = small, poorly fitted or top-dose-only effect; inactive = flat fitted curve, though single readings scatter; cell line not stated here;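 also: potency is read from the fitted curve at half-maximal effect; % of control where 0% means no effect; nearly all actives have a fitted effect of over 65% in size; a mitochondrial uncoupler was the plate control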
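Stable cell line, 250 cells/well, 12 h attachment; compounds pinned at 5 concentrations, 24 h; CCCP control. Fixed with nuclear dye, primary antibodies 12 h at 10 degrees C, secondary plus cell stain; laser-scanning cytometer read.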
An asterisk follows results filed as active; ? = inconclusive; / = no result given; & = joins results of further samples; [ ] = another dose, or the depositor's remark. Rows are unselected, and some 1.3% of all compounds hit somewhere here.

mol	D2 ag	TRPML1 agonist	D2 potentiator	CtBP-E1A inh	Six1-Eya2 blk	PINK1 expr mod
c1ccc(-c2csc3nnc(SCc4ccc5c(c4)OCCO5)n23)cc1	-2.9	0.4	-7	1	-3	0.1%
CN1CCc2c(sc(NC(=O)Cc3ccccc3)c2C(N)=O)C1	-6.1	0.3	-13	4	-1	1.1%
CCCCSc1nc(O)c(Cc2ccccc2)c(=O)[nH]1	-1.8	-0.6	-1	-2	-1	2.8%
CCCC(C)NC(=O)C1c2ccccc2Oc2ccccc21 (stereo not drawn)	-4.2	0.6	-3	-1	8	1.0%
S=C1Nc2ccccc2Sc2ccc(Cl)cc21	0.0	1.8	10	1	-7	?
Cc1cccc(NC(=O)CCOc2ccccc2)c1	-1.7	0.2	-7	10	-2	2.4%
Cc1nnc(NC(=O)NC(C)N2C(=O)C3C4C=CC(C4)C3C2=O)s1 (stereo not drawn)	1.2&-1.2	-0.7&-0.1	-2&-22	6&-6	1&-2	3.9%&-1.3%
COc1ccc(Nc2nc(N)nc(CSC(=S)N3CCOCC3)n2)cc1	-0.4	0.8	-5	/	1	0.7%
Cc1ccc(C2=NNC(=O)C(P(=O)(c3ccccc3)c3ccccc3)C2)cc1 (stereo not drawn)	-5.7	2.2	-4	/	9	2.5%
CC1=NN(C(=O)CCc2ccccc2O)C(O)(C(F)(F)F)C1 (stereo not drawn)	-5.1	0.3	-15	12	4	4.5%
COc1ccc2nc(SCC(=O)NCC(F)(F)F)[nH]c2c1	?	0.1	-3	3	16	2.0%
O=C(O)CCCCCn1c(SCC(=O)c2ccc(O)c(O)c2)nc2ccsc2c1=O	2.2	2.2	18	?	?	2.7%
CCOC(=O)CN1C(=O)C2(OCCCO2)c2ccccc21	-2.3	2.1	-17	6	4	4.4%[38.3 µM]
Cc1ccc(CN=C2Nc3ccccc3CS2)cc1	-4.1	-1.0	-26	15	10	-1.1%[38.3 µM]
CNC(=O)c1ccc(NC(=O)CC23CC4CC(CC(C4)C2)C3)cc1	-5.5	1.0	-3	-25	-21	-0.9%
O=C1Nc2c(c(=O)[nH]c(=O)n2-c2ccccc2)C(C(F)(F)F)(C(F)(F)F)N1	-0.9	-0.1	-7	3	1	2.6%[38.3 µM]
CS(=O)(=O)n1nc(OC(=O)c2cccc3ccccc23)cc1N	-1.0	2.5	-18	6	-8	3.9%
c1coc(-c2nnc3sc(Cc4cccs4)nn23)c1	-2.3	0.6	-8	-8	-24	2.9%[38.3 µM]
COCCCNC(=O)Cn1cc(C(=O)C2CC2)c2ccccc21	-4.7	-0.4	-9	-1	-6	-0.4%
CC1CCc2c(sc3nc(CSc4nnnn4C)[nH]c(=O)c23)C1 (stereo not drawn)	-0.3	0.0	-3	-1	1	2.9%
OC1(c2ccc(Cl)cc2)CCN(Cc2nc(-c3cnccn3)no2)CC1	2.4	-0.1	-2	8	-3	-0.6%
CCn1c(C)nc2cc(S(=O)(=O)C(F)(F)F)ccc21	-1.3	-0.1	-9	-5	10	1.5%
CCc1c(C)[nH]c2ccc(C)cc2c1=O	-4.6	-0.5	0	-11	3	-0.2%
O=c1cc[nH]c2c(Cl)cccc12	-0.2	1.0	16	/	2	-0.3%
O=C(Nc1ccc(Br)cc1)N1CCCCCCC1	-4.8	0.2	-27	0	7	1.9%

Next entries follow.
mol	D2 ag	TRPML1 agonist	D2 potentiator	CtBP-E1A inh	Six1-Eya2 blk	PINK1 expr mod
CCOc1cccc2sc(N(CCN(C)C)C(=O)c3ccc(Br)s3)nc12	-6.1	-0.5	-18	3	2	15%
COc1ccc(NC(=O)CN(C)S(=O)(=O)c2ccc(Cl)cc2)c([N+](=O)[O-])c1	-2.5	1.5	1	0	2	24%[38.3 µM]
O=C(C[n+]1ccccc1)N/N=C/c1ccc(Br)cc1	-1.9	2.5	-5	-26	-3	0.8%
CN(C(=O)Cn1nc(Cl)ccc1=O)C1CCCN(Cc2ccccc2F)C1 (stereo not drawn)	-4.9	-0.3	-11	-6	-4	1.6%
COc1cc(C(O)c2nc(-c3ccccc3C)cs2)ccc1F (stereo not drawn)	8.2	-1.0	-5	1	1	5.7%
Cc1onc(-c2ccccc2)c1C(=O)N[C@@H]1C(=O)N2C1SC(C)(C)[C@@H]2C(=O)O (stereo partly drawn)	-2.8	0.6	-6	-3	3	1.0%
CCOc1ccc(C(=O)OCC(=O)c2c(N)n(C)c(=O)n(C)c2=O)cc1OCC	-0.1	-0.5	-6	-1	-3	0.2%
CC(=O)NC(Cc1c[nH]c2ccccc12)C(=O)OCC(=O)Nc1ccc2c(c1)OCO2 (stereo not drawn)	1.8	0.3	-17	0	17	0.7%
O=C(Nc1nncs1)C1(c2ccccc2)CCCC1	-3.4	-0.9	2	3	-2	0.4%
CCSc1ccccc1C(=O)N1CCCC1	-3.0	-0.1	4	7	0	16%[38.3 µM]
O=c1c2ccccc2nc2ccc(NCc3ccco3)nn12	-0.4	2.2	-1	-81*	-69*	1.2%
Cc1ncsc1CCSc1n[nH]c(=O)n1-c1ccccc1	-0.9	1.2	1	6	11	6.0%[38.3 µM]
O=C(NNS(=O)(=O)c1ccccc1[N+](=O)[O-])c1cc2ccccc2cc1O	8.6	1.3	0	-11	-7	0.2%
Cc1cccc(N(Cc2cc3ccccc3[nH]c2=O)S(C)(=O)=O)c1	0.1	0.0	-4	-1	1	2.1%
COc1cccc(NC(=O)C2CCC2)c1	-3.3	0.5	-9	-4	-13	0.8%
CCCNC(=O)CN(c1ccc(F)c(Cl)c1)S(C)(=O)=O	-3.0	-0.3	-12	8	1	-3.8%[38.3 µM]
Cc1ccc(-c2cc(C(=O)N/N=C/c3c(C)nn(C)c3C)c3ccccc3n2)c(C)c1	-1.6	-0.6	-4	0	2	0.3%
O=C(CNC(=O)c1ccco1)NCC(=O)OCc1ccccc1Cl	-4.1	0.5	-2	-2	-1	2.7%
COc1cc(/C=C/C(=O)O)ccc1OCc1cnc(Cl)s1	3.2	-0.3	-1	/	-1	3.1%
CCn1ccnc1C(O)c1cccc2ccccc12 (stereo not drawn)	1.0	0.0	-2	-2	0	0.2%
Nc1ccccc1C#CC(=O)c1ccccc1	0.2	5.5	-63	/	-2	0.8%
O=C(/C=C/c1ccccc1)Nc1ccc(Cl)cn1	-2.2	-0.3	-10	6	7	7.8%
CC(NC(=O)C1CCCN1S(=O)(=O)c1cccc2cccnc12)c1ccccc1 (stereo not drawn)	2.5	-0.5	-6	-1	4	-0.9%
CCn1nnc(C(=O)O)c1C(=O)O	1.9	0.1	-3	2	0	-0.4%[38.3 µM]
O=C(O)c1ccc(-c2ccc(/C=N/Nc3ccc([N+](=O)[O-])cc3)o2)cc1	-5.5	/	-5	-2	-8	-0.1%

A few values from the entries so far.
Nc1ccccc1C#CC(=O)c1ccccc1 | Six1-Eya2 blk: -2
O=C1Nc2c(c(=O)[nH]c(=O)n2-c2ccccc2)C(C(F)(F)F)(C(F)(F)F)N1 | D2 ag: -0.9

Later entries:
mol	D2 ag	TRPML1 agonist	D2 potentiator	CtBP-E1A inh	Six1-Eya2 blk	PINK1 expr mod
CC1Cc2ccccc2N1C(=O)CSc1ncc(-c2ccc(F)cc2)n1C (stereo not drawn)	0.6	1.3	-10	-26	-25	2.6%
Cc1cnc(C(=O)Nc2ccccc2-c2ccc(C)o2)cn1	-4.2	-1.0	1	4	?	4.1%
CC(C)c1nnc(NC(=O)CCCC(=O)O)s1	-5.3	-0.5	0	-2	-22	1.3%
CCCCNCC(=O)Nc1ccc(NC(=O)CNCCCC)cc1	-8.7	-0.7	-17	3	-4	-0.6%
CCOC(=O)c1cc(-c2ccccc2)n(CC(=O)O)c1C	-1.4	-1.0	-9	3	-10	1.7%
COC(=O)c1cn(C(=O)c2ccc(Br)o2)c2ccccc12	-4.2	0.2	-8	0	11	-0.3%
O=C(O)c1cc([N+](=O)[O-])ccc1C(=O)Nc1cccc([N+](=O)[O-])c1	11	0.2	-3	-9	1	-1.3%
O=c1c(O)c(-c2cc(O)c(O)c(O)c2)oc2cc(O)cc(O)c12	13	0.6&0.4&1.3&0.7	13	?	?	0.0%&0.3%&-0.6%&-1.2%
COc1ccc(N2CCN(S(=O)(=O)c3c(C)n(C)c(=O)n(C)c3=O)CC2)cc1	-1.8	0.5	4	0	-1	-0.8%
COc1ccc(-c2nc(C)sc2CC(=O)O)cc1	-2.1	-0.5	7	-3	12	-1.5%
Cc1cccc(NC(=O)CCc2ccccc2)c1	-1.3	0.0	-12	0	1	-1.1%
Cc1ccsc1C(=O)N1CCCC(CCC(=O)NCc2ccccc2F)C1 (stereo not drawn)	-6.5	-0.9	-18	0	4	-0.7%
CC(=O)NCCC(=O)Nc1nc(-c2ccccc2Cl)cs1	-0.6	-0.4	-8	1	1	0.5%
CCCCN(C)CCNC(=O)c1cc(-c2cccnc2)nc2ccc(S(=O)(=O)N3CCC(C)CC3)cc12	-3.2	-0.9&1.3	-16	-8	-5	-1.5%&-0.7%
Brc1cccc(Nc2nc(-c3cccnc3)cs2)c1	1.0	0.4	-11	5	-17	0.5%
CCOC(=O)N1CCN(C(=O)c2ccc(CS(=O)c3ccccc3)o2)CC1 (stereo not drawn)	-8.2	-0.3	-29	-3	0	-0.4%
COCCNc1nc(SCC(=O)N2CCN(c3ccccc3)CC2)nc2ccccc12	0.3	0.8	-6	-9	-8	6.6%[38.3 µM]

Compound activity (PubChem BioAssay)
